GALR2 agonist: GALR2 receptor agonists, primary screen, cell-based; activation, %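 (tested at 5 µM)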; GALR2-expressing cells, agonist activation read-out; AID 803, 2007; 0.48% of 140,000 active; Galanin receptor type 2 (Homo sapiens), O43603;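 active = above mean plus 3 SD of all compounds, about 5% in these data, not always enough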;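 note: 0% = vehicle buffer wells and 100% = reference agonist at full effect; tested in CHO reporter cells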
Target sequence (O43603 whole entry, looked up): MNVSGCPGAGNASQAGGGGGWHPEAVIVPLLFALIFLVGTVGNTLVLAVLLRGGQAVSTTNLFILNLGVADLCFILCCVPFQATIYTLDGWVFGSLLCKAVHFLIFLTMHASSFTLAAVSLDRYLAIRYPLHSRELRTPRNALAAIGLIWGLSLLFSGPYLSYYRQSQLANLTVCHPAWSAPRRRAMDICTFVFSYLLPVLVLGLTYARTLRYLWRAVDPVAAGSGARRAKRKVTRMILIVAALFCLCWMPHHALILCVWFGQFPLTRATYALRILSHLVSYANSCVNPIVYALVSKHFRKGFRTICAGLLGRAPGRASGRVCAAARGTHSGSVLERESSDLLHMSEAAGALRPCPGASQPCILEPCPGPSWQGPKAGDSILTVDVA
Insulin prom inh: inhibitors of insulin promoter-driven GFP, primary screen, imaging, TRM-6 cells (human fetal islet line), eGFP reporter, cell count; reporter expression induced with tamoxifen; inhibition, % at 2 µM; 0.9% of 130,000 active;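 active = inhibition above the mean plus 3 SD, with well images judged a real hit on visual review, cut at about 60% in these data, passing the limit was not always enough; inconclusive = inhibition over the cutoff but images rejected on review; inactive = inhibition not above the cutoff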
HSV replic up: enhancers of HSV replication in host cells, fold increase, host cell viability | HSV replication augmentation in cells | maximum fold increase | 0.005% of 220,000 active;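 active = peak rise of 1.5-fold or more in the series; inconclusive = self-fluorescent or not available for retest; tested in PC3 cells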;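 note: first round at 10 µM; read as green reporter fluorescence; hits show the peak of a series up to 25 µM; 1 = signal of infected wells without compound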
RGS16-Gao: modulators of RGS16 binding to Galphao, primary screen, biochemical, human proteins, multiplexed bead flow cytometry; 0.38% of 220,000 active; binding response (% of control), % at 10 µM; bead-based flow cytometry RGS16-Galphao binding, fluorescence; actives lie on both sides;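 active = below 25% or above 175%, edge rows of some plates excepted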;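 note: Galphao activated by GDP with aluminum fluoride before binding; 100% = wells without compound and 0% = beads without RGS; some results beyond the cut were filed as inactive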
Target sequence (O15492 whole entry, looked up): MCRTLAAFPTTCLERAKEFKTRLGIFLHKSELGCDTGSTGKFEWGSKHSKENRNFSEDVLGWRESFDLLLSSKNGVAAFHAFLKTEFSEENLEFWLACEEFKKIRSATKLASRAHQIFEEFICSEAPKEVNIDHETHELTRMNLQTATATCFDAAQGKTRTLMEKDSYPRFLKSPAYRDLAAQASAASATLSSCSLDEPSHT
Target sequence (P09471 whole entry, looked up): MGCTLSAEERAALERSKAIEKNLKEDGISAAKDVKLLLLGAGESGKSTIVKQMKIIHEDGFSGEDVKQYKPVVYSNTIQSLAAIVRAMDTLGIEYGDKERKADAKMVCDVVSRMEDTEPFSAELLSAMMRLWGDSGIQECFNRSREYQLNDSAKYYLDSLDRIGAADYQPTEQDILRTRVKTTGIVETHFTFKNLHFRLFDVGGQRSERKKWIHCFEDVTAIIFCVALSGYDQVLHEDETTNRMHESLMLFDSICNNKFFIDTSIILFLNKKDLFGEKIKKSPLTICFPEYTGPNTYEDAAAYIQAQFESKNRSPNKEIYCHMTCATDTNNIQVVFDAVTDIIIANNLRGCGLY
PKD1 inh: inhibitors of human PKD1 kinase, biochemical, fluorescence polarization; Serine/threonine-protein kinase D1 (Homo sapiens), Q15139; PKD1 kinase fluorescence polarization assay; inhibition, %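 (about 10 µM by stock and volumes)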; 0.056% of 200,000 active; AID 797, 2007;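 active = inhibition of 50% or more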;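 note: controls were vehicle for no effect and a reference inhibitor for full effect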
Insulin prom inh cell count: further read-out of Insulin prom inh, marked with its call; normalized cell count, %; measured here: cell count, toxicity; reference of the scale not given here;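 cells exposed to compound for 48 h; stained nuclei by imaging scaled within each plate; lower means fewer cells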
HSV replic up primary fold: second read-out of HSV replic up, no call of its own (marks repeat the call); fold increase; compound at 10 µM; measured here: primary screen fold increase 10 uM; tested in PC3 cells;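 GFP signal in the first replicate; 1 = infected wells without compound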
The depositor's hits bear a star; i = inactive; ? = inconclusive; . = not tested or not shown; & = joins results of further samples. This is a random part of the collection, and some 1.3% of all compounds hit somewhere here.

smiles | PKD1 inh | HSV replic up primary fold | GALR2 agonist | Insulin prom inh | HSV replic up | RGS16-Gao | Insulin prom inh cell count
Cc1ccc(NCC(=O)N=Nc2c(O)[nH]c3ccc([N+](=O)[O-])cc23)cc1 | . | 1.1 | . | . | i | 100 | .
CCNC(=S)Nc1ccc(Cl)cc1Cl | 0 | 0.86 | -0.6 | -23 | i | 100 | 119
Cc1cc(-c2n[nH]c(=S)n2/N=C/c2ccc(C)o2)n[nH]1 | . | 0.95 | . | . | i | 109 | .
O=C(COc1ccccc1)NCc1nnc2c3ccccc3c(-c3ccccc3)nn12 | -3 | 0.91 | 0.3 | 18 | i | 109 | 89
C1CCc2c(nc3nnnn3c2N2CCOCC2)C1 | -7 | 1 | -0.5 | . | i | 109 | .
Cc1cnc(C(=O)NCC(c2ccccc2)c2ccccc2)cn1 | -1 | 1 | . | -9 | i | 109 | 139
CC1N(C)c2cccc3cccc(c23)N1C | -4 | 0.96 | -2.4 | -469 | i | 56 | 40
CC(=O)Oc1ccc([N+](=O)[O-])cc1N1C(=O)c2ccccc2C1=O | -8 | 0.97 | -0.7 | -3 | i | 99 | 109
O=C(O)c1c2c(nc3ccccc13)CCCCC2 | -10 | 1 | -0.9 | . | i | 115 | .
COC(=O)c1cc(=O)nc2sc3ccccc3n12 | 0 | 1.1 | -4.8 | 3 | i | 110 | 98
COC(=O)C1(CCSC)NC(c2ccco2)C2C(=O)N(C)C(=O)C21 (centres undefined) | 4 | 0.98 | -2.2 | 6 | i | 112 | 95
COc1cccc(Sc2cc(N3CCOCC3)nc(-c3ccccc3)n2)c1 | 2 | . | 0.2 | . | . | 96 | .
Cc1ccc(N2C(=O)CC(Cc3cc(C)cc(C)c3)C2=O)cc1 (centres undefined) | 1 | 0.89 | . | -95 | i | 107 | 145
O=C(N=Nc1c(O)[nH]c2ccc([N+](=O)[O-])cc12)c1cc(-c2ccccc2Cl)nc2ccccc12 | -27 | 0.75 | 1.9 | 3 | i | 94 | 108
c1ccc(-n2ncc3c(N4CCC5(CC4)OCCO5)ncnc32)cc1 | 4 | . | -2.2 | -13 | . | 101 | 112
O=C(CN1C(=O)c2ccccc2S1(=O)=O)Nc1cccnc1 | -1 | 1 | -3.4 | -221 | i | 39 | 39
CC(C)CC(=O)NC(=S)NNC(=O)c1cccc([N+](=O)[O-])c1 | -2 | 0.93 | . | 40 | i | 102 | 110
Fc1cccc(CN2CCN(C(=S)NCCc3ccccc3)CC2)c1 | -8 | 0.91 | . | -12 | i | 101 | 84
Cc1nn(Cc2ccccc2)c(Cl)c1/C=N/NC(=O)c1cccnc1 | -5 | 0.97 | -2.0 | -41 | i | 105 | 70
CCOCCCn1c(=S)[nH]c2ncccc2c1=O | -13 | . | 0.6 | 100* | . | 106 | 79*
CN(C)C(=O)Cn1c(=O)n(C)c2ccccc21 | -2 | 0.88 | -1.2 | -36 | i | 104 | 55
CC1=CC=CC2=N/C(=N\S(=O)(=O)c3ccc(F)cc3F)c3ccccc3CN12 | -8 | 1 | . | -50 | i | 98 | 153
Brc1ccc(-n2cc(-c3ccccc3)c3c(NN4CCOCC4)ncnc32)cc1 | -5 | 0.94 | -1.0 | . | i | 100 | .
Cc1ccc(S(=O)(=O)NNC(=O)C2CCN(Cc3ccccc3)CC2)cc1 | -4 | 0.76 | -1.7 | 21 | i | 104 | 134
COc1ccc(S(=O)(=O)NCCC(=O)NC2CCCCCCC2)cc1 | -1 | 1.1 | 0.8 | 17 | i | 122 | 94
Cc1ccc(-c2cc(-c3n[nH]c(=S)n3C)c3ccccc3n2)cc1 | 2 | 0.93 | . | . | i | 99 | .
COCCCn1nnnc1SCC(=O)Nc1ccc2c(c1)OCCO2 | -9 | 0.96 | . | . | i | 106 | .
Cc1cc(OCC#N)nc(N)n1 | -1 | 1 | . | 36 | i | 100 | 118
CC(=O)c1oc2ccccc2c1NC(=O)CN1CCCCC1 | -8 | 0.9 | -2.4 | -153 | i | 111 | 99
O=C(Nc1nsc(-c2ccccc2)n1)c1ccncc1 | 10 | 0.83 | 0.0 | -22 | i | 101 | 107
C/C(=N\Nc1ccc(Cl)c(C(=O)O)c1)c1ccc2c(c1)OCO2 | -4 | 0.93 | . | 20 | i | 100 | 105
CCOc1ccccc1N1CCN(c2nc3ccccc3nc2C(C#N)C(=O)OC)CC1 (centres undefined) | -5 | 0.88 | -2.5 | . | i | 103 | .
COc1cc(OC)c(N(C)C(=O)CCNC(=O)Cn2cnc3ccccc3c2=O)cc1Cl | -7 | 0.84 | -0.2 | -16 | i | 101 | 134
Cn1nc(OCC(N)=O)ccc1=O | -3 | 1 | -3.1 | 0 | i | 97 | 103
CC(NC(=O)c1cc(=O)[nH]c2ccc(Br)cc12)c1ccccc1 (centres undefined) | -4 | 0.95 | . | -45 | i | 105 | 105
COCCN(CCOC)S(=O)(=O)c1ccc(C(=O)Nc2nnc(COC)o2)cc1 | -1 | 1 | . | . | i | 101 | .
Cc1cccc(NC(=O)C2CCCN(c3nc(C)cc(C)n3)C2)c1 (centres undefined) | 0 | 0.86 | -1.4 | 11 | i | 103 | 87
COc1ccccc1N1CCN(C2CCN(C(=O)COc3ccccc3)CC2)CC1 | 0 | 1 | . | . | i | 102 | .
O=C1c2ccccc2C(=O)N1n1cccc1 | 2 | 1 | 0.1 | . | i | 122 | .
CC(=O)Nc1ccc(S(=O)(=O)NC(CC(=O)O)c2ccc(OC(C)C)cc2)cc1 (centres undefined) | -2 | 1 | 0.1 | 50 | i | 142 | 121
O=C(CSc1nnc2sc3ccccc3n12)c1ccco1 | 6 | 0.83 | -3.4 | -84 | i | 100 | 75
O=C(CSc1nc2ccccc2o1)N/N=C/c1ccc(O)c(O)c1 | . | 0.78 | . | . | i | 89 | .
COc1ccc(/C=N/NC(=O)c2ccc(CSc3nncn3C)cc2)cc1OC | 0 | 1 | . | . | i | 94 | .
N#CC1(c2ccc(NC(=O)c3ccccc3F)cc2)CCCC1 | 5 | 0.99 | -1.0 | . | i | 103 | .
CCn1c(C)cc(/C=C2/SC(=S)NC2=O)c1C | -14 | . | -0.8 | . | ? | 99 | .
CN(C(=O)CC1C(=O)NCCN1C/C=C/c1ccccc1)C1CCOCC1 (centres undefined) | -3 | 0.97 | . | . | i | 101 | .
Oc1ccc(/C=N/Nc2nc(-c3cccnc3)nc3ccccc23)c(O)c1 | . | 1.1 | . | . | i | 101 | .
CCc1nnc(NC(=O)/C=C/c2ccco2)s1 | -6 | 1.1 | -0.8 | 6 | i | 99 | 161
CC(=O)CC(C)(C)S(=O)(=O)c1ccc(Oc2ccc(S(=O)(=O)C(C)(C)CC(C)=O)cc2)cc1 | -2 | 0.82 | -1.3 | -40 | i | 95 | 100
Cc1c(C)n(CCC(=O)O)c2ccccc12 | 0 | 1.1 | . | . | i | 105 | .
COCCSc1ccccc1C(=O)NCc1cccnc1 | -11 | 0.92 | . | . | i | 101 | .
O=C(CCc1nc2ccccc2[nH]1)NCc1ccc2c(c1)OCO2 | -6 | 1 | -0.4 | -40 | i | 113 | 41
Cc1cc(C)nc(N2C(=O)CC(Cc3ccc(Cl)cc3)C2=O)n1 (centres undefined) | -1 | 1.1 | . | 14 | i | 97 | 109
Cn1c(NC(=O)Cc2cccc3ccccc23)cc(=O)n(C)c1=O | -8 | 0.93 | . | -111 | i | 117 | 21
CCC(C)NC(=O)c1ccccc1-c1ccccc1C(=O)NC(C)CC (centres undefined) | -3 | 0.98 | . | . | i | 100 | .
COc1ccc([N+](=O)[O-])cc1NC(=O)C1(c2ccccc2)CCOCC1 | -5 | 0.85 | . | -71 | i | 100 | 85

The final 4 compounds of the part above are carried over, then new ones follow:
smiles | PKD1 inh | HSV replic up primary fold | GALR2 agonist | Insulin prom inh | HSV replic up | RGS16-Gao | Insulin prom inh cell count
Cc1cc(C)nc(N2C(=O)CC(Cc3ccc(Cl)cc3)C2=O)n1 (centres undefined) | -1 | 1.1 | . | 14 | i | 97 | 109
Cn1c(NC(=O)Cc2cccc3ccccc23)cc(=O)n(C)c1=O | -8 | 0.93 | . | -111 | i | 117 | 21
CCC(C)NC(=O)c1ccccc1-c1ccccc1C(=O)NC(C)CC (centres undefined) | -3 | 0.98 | . | . | i | 100 | .
COc1ccc([N+](=O)[O-])cc1NC(=O)C1(c2ccccc2)CCOCC1 | -5 | 0.85 | . | -71 | i | 100 | 85
COc1ccc(-n2ncc3c(NCC(C)C)ncnc32)cc1 | -4 | 0.89 | -1.1 | 12 | i | 106 | 156
CCOC(=O)c1cn(CC)c2cc(N3CCOCC3)c(F)cc2c1=O | -6 | 0.8 | 1.1 | -21 | i | 81 | 50
CC(=O)O[C@]1(C(C)=O)CC[C@H]2[C@@H]3C=C(C)C4=CC(=O)CC[C@]4(C)[C@H]3CC[C@@]21C | 11 | 0.8 | 1.2 | 0 | i | 92&99 | 112
CCOC(=O)C1=C(Nc2ccc(C)cc2)CC(C)(O)C(C(=O)OCC)C1c1ccccc1 (centres undefined) | -7 | 1 | -0.3 | 26 | i | 101 | 122
CC(C)c1ccc(NC(=O)N2CCc3ccccc3C2)cc1 | -1 | 0.88 | . | . | i | 104 | .
O=C(O)c1ccc2c(=O)[nH]c(CN3CCOCC3)nc2c1 | -4 | . | -1.8 | 20 | . | 105 | 104
CCCn1c(SCC(=O)NC2CCCc3ccccc32)n[nH]c1=O (centres undefined) | 1 | 1 | . | . | i | 103 | .
N#CC(C#N)=C1NC2(CCCC2)Cc2ccccc21 | -9 | 1.2 | -1.2 | 11 | i | 26 | 96
CN(C)CCC1CCN(c2cc(C#N)c(C#N)cc2[N+](=O)[O-])CC1 | -3 | 0.78 | . | . | i | 100 | .
O=C(NCc1nc2ncc(Br)cc2[nH]1)c1ccccc1 | 8 | 1 | -0.3 | 0 | i | 112 | 124
COc1ccc2c(c1)O[C@H](c1ccc3c(c1)OCO3)[C@@H](O)C2=O | -5 | 0.94 | -2.8 | -29 | i | 107 | 54
Cn1c(=O)n(C)c2cc(S(=O)(=O)NCc3ccccc3)ccc21 | 1 | 0.98 | -0.4 | . | i | 98 | .
Fc1ccc(CNc2nc(-c3ccccc3)nc3ccccc23)cc1 | -3 | 1 | . | 0 | i | 101 | 53
O=C(COC(=O)/C=C/c1cccs1)Nc1ccccc1Cl | -5 | 1.1 | . | 33 | i | 101 | 127
CCC(C)c1ccc2oc(-c3ccc(NC(=O)Cn4cnc5c(=O)n(C)c(=O)n(C)c54)cc3)nc2c1 (centres undefined) | -2 | 0.64 | -0.8 | -196 | i | 96 | 82
CCNCc1cc(Cl)c(OCc2ccccc2)c(OCC)c1 | 0 | 0.73 | . | . | i | 104 | .
Cc1nnc(SCC(=O)N2CCOCC2)s1 | -13 | 1 | -4.7 | 70 | i | 98 | 110
CC1(C)C(=O)Nc2ccccc2N1C(=O)CSc1nnc2ccccn12 | -15 | 0.97 | -1.0 | -30 | i | 105 | 118
COc1ccccc1/C=C/C(=O)N1CCC(c2ccccc2)C1 (centres undefined) | -3 | 0.94 | 0.2 | -3 | i | 101 | 127
CN1CCN(c2ccc(C(=O)NC3CCCCC3)cc2[N+](=O)[O-])CC1 | 4 | 0.97 | . | . | i | 167 | .
CCOC(=O)Cc1csc(NC(=O)CCCN2C(=O)c3ccccc3C2=O)n1 | 6 | 1 | -1.0 | 38 | i | 104 | 115
COc1ccccc1N1CCN(C(=O)COc2ccc(S(=O)(=O)NC(C)(C)C)cc2)CC1 | -2 | 1.1 | . | . | i | 96 | .
Cc1ccc(C)c(NC(=O)CSc2nnc(C)c(=O)n2N)c1 | -5 | 1 | -1.1 | -20 | i | 61 | 71
COc1cc(NC(C)=O)ccc1-c1cc2ccccc2oc1=O | -12 | 0.97 | . | 7 | i | 102 | 74
N#Cc1c2ncn(CC(=O)c3ccc(Br)cc3)c(=O)c2c2n1CCC2 | -14 | 0.93 | 0.0 | 64 | i | 98 | 73

3 entries out of the list, sorted by heavy-atom count, descending.
smiles | PKD1 inh | HSV replic up primary fold | GALR2 agonist | Insulin prom inh | HSV replic up | RGS16-Gao | Insulin prom inh cell count
COc1cc(NC(C)=O)ccc1-c1cc2ccccc2oc1=O | -12 | 0.97 | . | 7 | i | 102 | 74
Cc1ccc(C)c(NC(=O)CSc2nnc(C)c(=O)n2N)c1 | -5 | 1 | -1.1 | -20 | i | 61 | 71
Cc1nnc(SCC(=O)N2CCOCC2)s1 | -13 | 1 | -4.7 | 70 | i | 98 | 110

Bioassay records deposited in PubChem BioAssay by several laboratories.
